Assay outcomes: PubChem, The Scripps Research Institute Molecular Screening Center
OX1R antag-1 – antagonists of human orexin 1 receptor (OX1R). O43613. OX1R-expressing cells, FRET antagonist read-out. inhibition, % at 6.6 µM. 330,000 compounds, 1.8% hits. AID 485270; in the data active = inhibition mostly above about 38%, no sharp cut-off; inactive = mostly below about 40%;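 also: 0% = agonist challenge alone and 100% = reference antagonist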
Target sequence (O43613 whole entry, looked up): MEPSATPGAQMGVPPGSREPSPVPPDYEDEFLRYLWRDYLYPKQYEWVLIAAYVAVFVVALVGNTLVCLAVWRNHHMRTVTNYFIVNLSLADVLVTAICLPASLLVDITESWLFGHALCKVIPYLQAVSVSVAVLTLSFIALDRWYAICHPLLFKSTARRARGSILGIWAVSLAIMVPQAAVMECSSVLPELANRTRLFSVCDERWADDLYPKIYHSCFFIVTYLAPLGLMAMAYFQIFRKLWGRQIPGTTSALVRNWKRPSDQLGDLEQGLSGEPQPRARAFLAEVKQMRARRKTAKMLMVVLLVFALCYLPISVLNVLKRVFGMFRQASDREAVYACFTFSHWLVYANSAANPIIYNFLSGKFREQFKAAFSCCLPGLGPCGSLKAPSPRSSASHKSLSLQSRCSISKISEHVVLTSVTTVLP
OX1R antag-2 – human HCRTR1 antagonism; CHO/OX1R cells, Fluo-8 calcium fluorescence, orexin A; AID 434989; 330,000 compounds, 0.43% hits; O43613; inhibition, % at 5 µM;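 active = inhibition above its plate's threshold, mean inhibition of all tested compounds on the plate plus 3 SD, cut at about 37% in these data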;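 also: 0% = orexin A challenge wells and 100% = SB-334867-A antagonist wells; not every result past the cut was called active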
* marks the source's active call; other numbers are inactive results.

canonical_smiles	OX1R antag-1	OX1R antag-2
COc1ccc(Nc2ncnc3sccc23)c(OC)c1	6	-12
COc1cc(CCC(=O)Nc2ccncc2Cl)cc(OC)c1OC	11	-7
CC(C)(C)NC(=O)C(c1ccncc1)N(C(=O)Cn1nnc(-c2cccs2)n1)C1CCCCC1 (stereo not given)	34	-8
Cc1ccc(NC(=O)/C=C/c2cccc([N+](=O)[O-])c2)nc1	12	-23
CO/N=C(\c1nonc1N)N1CCN(c2ccc(Cl)cc2[N+](=O)[O-])CC1	19	-2
O=C(Cc1ccc(Cl)cc1)c1ccc(O)cc1	4	-2
CCc1nc2nc(C)c(NS(=O)(=O)c3cccs3)c(=O)n2[nH]1	10	2
COc1ccc(C)cc1NC(=O)CN1C(=O)c2ccccc2S1(=O)=O	9	3
C=CCn1c(SCC(=O)NCCCO)nc2sc3c(c2c1=O)CCC3	5	-11
CC1C(=O)C(C)(C)C(=O)OC1c1ccc([N+](=O)[O-])cc1 (stereo not given)	-5	-3
CCOC(=O)c1sc2ncn(/N=C/c3cccnc3)c(=O)c2c1C	29	-30
CN(C(=O)c1cccc(NC(=O)c2ccco2)c1)c1ccccc1	0	-14
COCCSc1nnc(NC(=O)C2CC(=O)N(c3ccc(Cl)cc3)C2)s1 (stereo not given)	37	-19
CCN(CC)S(=O)(=O)c1ccc(/C=C/C(=O)Nc2ccc(N3CCOCC3)cc2)cc1	13	-17
O=C(COc1ccccc1N1C(=O)c2ccccc2C1=O)c1ccc(Cl)cc1	20	-27
Cc1cc(=O)[nH]c(SCC(=O)Nc2ccc(S(N)(=O)=O)cc2)n1	3	-15
Fc1cccc(NC(=S)N2CCN(c3ccccn3)CC2)c1	-2	-5
COc1ccccc1/C=C/C=N/NC(=O)Cc1cccs1	17	-18
COCCNC(=O)CN1C(=O)NC2(CCOc3ccccc32)C1=O (stereo not given)	9	-1
CCOC(=O)c1ccc(N2CCOCC2)c(NC(=O)c2c(-c3ccccc3)noc2C)c1	15	-33
Cc1ccc(C)c(NC(=S)NNC(=O)c2csc(C)c2C)c1	14	-21
CCc1cccc(NC(=O)c2ccc(CNc3c(N4CCCC4)c(=O)c3=O)cc2)c1	19	7
CC(C)NC(=O)NC(=O)CN1C(=O)NC2(CCc3ccccc3C2)C1=O (stereo not given)	-12	-10
Cc1ccc(C(=O)NNC(=O)c2cccs2)cc1	14	5
O=C(CCCN1C(=O)/C(=C\c2ccccc2)SC1=S)Nc1ccc(C(=O)O)cc1	19	-7
COCCCN(CCNC(=O)c1ccc(NC2=NC3CS(=O)(=O)CC3S2)cc1)Cc1ccco1 (stereo not given)	16	-7
COc1ccc(CC(=O)Nc2ccccc2C(=O)N2CCOCC2)cc1	10	4
Cc1ccc(NC(=O)COC(=O)CCC(=O)c2cccs2)cc1S(=O)(=O)N1CCOCC1	13	-28
COc1cc([C@@H]2CC=C(C(=O)O)[C@H](c3ccc(Cl)cc3)N2S(=O)(=O)c2ccc(C)cc2)cc(OC)c1OC	16	-9
CC(C)(C)NC(=O)CN(C(=O)CCC(=O)Nc1nccs1)c1cccc(C(F)(F)F)c1	7	-12
O=C(Nc1ccc(F)c(Cl)c1)C1CCCN(c2cnccn2)C1 (stereo not given)	35	-24
CC(=O)c1c(N)nc2n(c1=O)CCCCC2	8	4
Cc1ccccc1N1C(=O)C2C3CCC(O3)C2C1=O (stereo not given)	-3	-7
CC(=O)c1ccc(OCCCC(=O)OCC(=O)N2CCN(c3ccccc3)CC2)cc1	29	13
Cc1ccc(C2CC(c3ccc(C)cc3)n3nc(N)nc3N2)cc1 (stereo not given)	15	-6
COc1ccc(C(=O)NCC(O)CN2CCOCC2)cc1[N+](=O)[O-] (stereo not given)	30	-8
O=C(Nc1cccc(C(F)(F)F)c1)C1C2CC3OC(=O)C1C3C2 (stereo not given)	15	3
COc1ccc(-c2csc(N(CCCN(C)C)C(=O)c3ccccc3C)n2)cc1	6	-18
Cc1cc(NC(=O)C2CCCN(S(=O)(=O)c3c(C)noc3C)C2)n[nH]1 (stereo not given)	4	-2
Cc1ccc(C(=O)Nc2ccccc2C(=O)N2CCCCC2C)cc1 (stereo not given)	19	-31
CS(=O)(=O)NN1C(=O)c2ccccc2NC1c1ccccc1O (stereo not given)	9	-6
Cc1cc(C)c(C(=O)OCCNC(=O)c2cccnc2)cc1C	2	-13
COc1ccc(NC(=O)c2ccccc2N2C(=O)C3C4C=CC(C5CC45)C3C2=O)c(OC)c1 (stereo not given)	4	-24
Cc1c(NC(=O)c2cc(C(C)C)on2)c(=O)n(-c2ccccc2)n1C	2	-14
O=C1NN(c2ccccc2)C(=O)/C1=C/c1ccc(Sc2ccc(Cl)cc2)o1	14	8
O=C(O)C1CC=CCC1C(=O)Nc1cccnc1 (stereo not given)	4	-15
CCOC(=O)c1n[nH]n(-c2cc(Cl)cc(Cl)c2)c1=O	11	-15
CCCCCCCc1c(O)nc(SCCN(C)C)[nH]c1=O	6	-8
CSCCC(=O)N(C)CC1CCN(CCc2cccc(C(F)(F)F)c2)CC1	10	-37
CC1CCCN(S(=O)(=O)c2cnc[nH]2)C1 (stereo not given)	9	-10
CCS(=O)(=O)c1nc(NC(C)=O)n[nH]1	17	-5
O=c1c(-c2cccc([N+](=O)[O-])c2)[n+]([O-])c2ccccc2n1O	22	-12
Cc1ccc(CNc2nc3ccccc3n2C)cc1	3	-14
COc1ccc(C2(O)CC3CCC(C2)N3c2cc(C)nc(-c3ccccc3)n2)cc1 (stereo not given)	14	-19
Cc1ccc(C(=O)N2CCN(Cc3ccc4c(c3)OCO4)CC2)cc1C	15	-11
COc1ccc(NC(=O)c2ccc(S(=O)(=O)N(C)C)cc2)cc1OC	2	-1
NC(=O)CC(NC(=O)Cc1cccc2ccccc12)c1ccc(N2CCc3ccccc3C2)c([N+](=O)[O-])c1 (stereo not given)	15	-21
Cc1ccc(S(=O)(=O)NCCC(=O)Nc2nnc(C3CC3)s2)cc1C	15	-37
COc1cccc(CC2(CO)CCCN(Cc3nc(-c4cccs4)oc3C)C2)c1 (stereo not given)	45*	9
COc1ccc(Cl)cc1NC(=O)C1CC(c2c(F)cccc2Cl)=NO1 (stereo not given)	17	-24

Other entries:
canonical_smiles	OX1R antag-1	OX1R antag-2
O=C1CC(NNc2nc3ccccc3s2)C(=O)N1c1ccccc1 (stereo not given)	13	1
COc1ccc(C(=O)NC(=S)Nc2ccc3[nH]c(=O)[nH]c3c2)c(OC)c1	12	-4
COC(=O)c1cccc(NC(=O)CSc2nc(O)c(-c3ccccc3)c(=O)[nH]2)c1	-6	-30
N#Cc1c(NC(=O)CSc2nc3ccccc3c(=O)n2Cc2ccco2)sc2c1CCCC2	3	-34
O=C(Cn1ncc(Cl)c(Cl)c1=O)NC1CCS(=O)(=O)C1 (stereo not given)	-1	-2
CC(=O)NC(=S)Nc1ccccc1N1CCCCC1	5	-9
C/C(=N\NC(=O)c1ccc(Cl)c(Cl)c1)c1cccc(NC(=O)C(C)C)c1	12	-11
O=C(Nc1nncs1)C1CCCC1	11	-15
CC(C)CCNC(=O)CN(CCN1CCOCC1)C(=O)Cn1nnc(-c2ccc(F)cc2)n1	11	-24
O=[N+]([O-])c1ccc(/C=N/Nc2ccccn2)cc1	11	-25
O=C(NCCc1c[nH]c2ccccc12)c1cc([N+](=O)[O-])cc([N+](=O)[O-])c1	21	-19
Cn1cnnc1SCC(=O)Nc1ccccc1Sc1ccccc1	12	-29
CCOC(=O)[C@H]1[C@H]2COc3ccc(OC)cc3[C@@H]2N2C(=O)c3ccccc3NC(=O)[C@@]12C	16	-4
COCCNC(=S)Nc1ccc2nc(N3CCCC3)cc(C)c2c1	3	-12
CCCn1c(SCC(=O)c2ccc3c(c2)NC(=O)CO3)nc2ccccc21	8	3
Cc1ccc(NC(=O)Cn2cnc3c(=O)n(C)c(=O)n(C)c32)c(C)c1	16	-29
Cc1cccc(NC(=O)CSc2cn[nH]n2)c1	13	-24
O=C(Nc1ccc(NC(=O)c2ccco2)cc1)c1cnccn1	12	0
CCCC(=O)NC(c1cccs1)c1cc(Cl)c2cccnc2c1O (stereo not given)	12	-16
NS(=O)(=O)c1ccc(N2N=C(c3ccccc3)CC2c2ccccc2)cc1 (stereo not given)	14	-22
CC(C)(C)c1ccc(C2CC2C(=O)N/N=C\c2cc3ccccc3nc2Cl)cc1 (stereo not given)	14	-12
Cc1nc2ccccc2n1CC(=O)NCCN1CCOCC1	7	-6
CCCOc1ccc2c3c(c(=O)oc2c1OCCC)CCCC3	-1	-4
CCOC(=O)C/C(N)=N/N(C)c1ncc(C(F)(F)F)cc1Cl	15	-17
O=S(=O)(c1ccccc1)N1CCN(Cc2ccc(Cl)cc2)CC1	32	-9
CCOc1ccc(N(CC)C(=O)COc2cc(=O)n(C)c3ccccc23)cc1	8	-32
COc1cccc(C(=O)N/N=C(/c2ccccc2)c2ccccn2)c1	22	-13
CCN(N)C(=S)Nc1ccc(F)cc1	17	-19
C=CCNC(=S)Nc1cccc2[nH]ncc12	2	9
CCc1cccc(OCCOCCN2CCCC2)c1	16	-17

The closing 4 records of the part above come first, to join the parts.
Values run as follows: OX1R antag-1, OX1R antag-2
> COc1cccc(C(=O)N/N=C(/c2ccccc2)c2ccccn2)c1
 : 22, -13
> CCN(N)C(=S)Nc1ccc(F)cc1
 : 17, -19
> C=CCNC(=S)Nc1cccc2[nH]ncc12
 : 2, 9
> CCc1cccc(OCCOCCN2CCCC2)c1
 : 16, -17
> COc1ccc(CCC(=O)NCc2cnn(C)c2)cc1
 : 1, -10
> CC(C)(C)NC(=O)C(=O)NNC(=O)c1ccccc1
 : 14, -2
> Cc1ccc(CN2CCN(CC(=O)N/N=C/c3ccccc3F)CC2)cc1
 : 10, -9
> CCC(=O)N1c2ccccc2NC2=C(C(=O)CCC2)C1c1ccccc1 (stereo not given)
 : 8, 4
> O=c1nc(NCc2ccco2)sc2ncccc12
 : 3, 8
> CNC(=O)c1cc(Nc2nnc(-c3ccc(C)c(S(N)(=O)=O)c3)c3ccccc23)ccc1OC
 : 4, -24
> CN(c1cccc(NC(=O)CSc2ccc(Cl)cc2)c1)S(C)(=O)=O
 : 7, 9
> Cc1cc2c(C)nc(Cc3ccccc3)nc2o1
 : 11, -13
> Cc1ccc(S(=O)(=O)NCC(=O)NCC(=O)OCC(=O)NC(=O)NC(C)(C)C)cc1C
 : 27, -8
> O=C(NC1CCCCC1)c1cc(-c2ccccn2)nc2ccccc12
 : 7, -25
> CCOc1cc(N2CCOCC2)c(OCC)cc1NC(=O)CN1CCc2ccccc2C1
 : 20, -9
> O=C(c1ccccc1Br)N1CCN(c2ccccc2)CC1
 : 18, -22
> Cc1ccc(-c2cc(-c3n[nH]c(=S)o3)c3ccccc3n2)cc1
 : 14, -16
> COC(=O)C1=C(C)NC(=O)NC1C1CC=CCC1 (stereo not given)
 : 11, 4
> CN(Cc1ccon1)Cc1cn(C)nc1-c1cccc(Cl)c1
 : 16, 12
> CC(=NCCCn1ccnc1)c1c(O)n(Cc2ccccc2)c(=O)[nH]c1=O
 : 15, -6
> Cc1ccc(CNC(=O)CCSCc2ccccc2C)cc1
 : 12, -9
> CCCCOc1nc2ccccc2nc1C(C#N)C(=O)NC1CCCCC1 (stereo not given)
 : 7, -16
> CC(=O)SC1CC2=CC(=O)CCC2(C)C2CCC3(C)C(CCC34CCC(=O)O4)C12 (stereo not given)
 : 16, -21
> CCOC(=O)C1(S(=O)(=O)c2ccccc2)CCN(Cc2ccccc2)CC1
 : 11, -15

Exported with the structure last: entries from further up
OX1R antag-1	OX1R antag-2	structure
15	-6	CC(=NCCCn1ccnc1)c1c(O)n(Cc2ccccc2)c(=O)[nH]c1=O
12	-9	Cc1ccc(CNC(=O)CCSCc2ccccc2C)cc1
7	-16	CCCCOc1nc2ccccc2nc1C(C#N)C(=O)NC1CCCCC1 (stereo not given)
16	-21	CC(=O)SC1CC2=CC(=O)CCC2(C)C2CCC3(C)C(CCC34CCC(=O)O4)C12 (stereo not given)

The results go on.
Values run as follows: OX1R antag-1, OX1R antag-2
> CCN(CC)S(=O)(=O)c1cccc2cc(C(=O)O)c(O)cc12
 : 8, -2
> C=CCNC(=S)NNC(=O)C(CCCC)CC(C)(C)O (stereo not given)
 : 27, -11
> O=C(Nc1cccc(-c2cccc(Cl)c2)c1)C1CCN(C2CCC2)CC1
 : 10, -11
> CCOC(=O)c1cnc2c(F)ccc(F)c2c1Sc1ccccc1
 : 8, -22
> O=C(Nc1ccccc1C(F)(F)F)Nc1cccc2ccccc12
 : 13, 3
> COc1cc(C#Cc2c(-c3ccccc3)n(C)c3ccccc23)cc(OC)c1
 : 19, -35
> O=C(CSCSCC(=O)Nc1ccc2c(c1)OCO2)Nc1ccc2c(c1)OCO2
 : 18, -15
> Cc1cc(C)cc(CSCC(=O)NN=C2CCCCCC2)c1
 : 11, -19
> O=C(Nc1ncc2c(n1)CC(c1ccco1)CC2=O)c1ccccc1 (stereo not given)
 : 19, -19
> O=C1CC(NCc2ccncc2)C(=O)N1c1ccc(Cl)cc1 (stereo not given)
 : 9, -14
> Cc1ccc(-c2cc(C(=O)O)n[nH]2)o1
 : 9, -7
> Cc1ccc(S(=O)(=O)Nc2nc3ccccc3nc2N2CCc3ccccc3C2)cc1
 : 37, -40
> S=c1[nH]nc(COc2ccccc2)n1/N=C/C=C/c1ccco1
 : 14, -5
> COc1ccc(CCNC2CCc3ccccc3C2)cc1 (stereo not given)
 : 10, -16
> COc1ccc(NC(=O)CSc2nnc(-c3ccncc3)o2)c([N+](=O)[O-])c1
 : 24, -7
> COC(=O)c1c(NC(=O)c2nn(C)cc2Cl)sc2c1CCCC2
 : 5, -20

These rows are one share of the data; most or all hits stand in other tables.
